MARV entry inh: qHTS for inhibitors of binding or entry into cells for Marburg Virus | Marburg virus pseudotyped entry inhibition, cell reporter; control for the full effect not named in the record; about a third of the inactives were read at about 46 µM | Potency, µM (titrated, usually from 37.8 µM), for inactives: at the top dose activity change, negative = inhibition, usual class: inhibitors | 1.8% of 300,000 active; active = well fitted inhibition curve with a large enough effect; inconclusive = small, poorly fitted or top-dose-only effect, or effect the other way; inactive = flat fitted curve, though single readings scatter; tested in HEK293 cells; about a fifth of its hits are not listed in these tables; further: on the % scale 0 is the no-effect control and ±100 the full control effect; luciferase read-out
LASV entry inh: qHTS for Inhibitors of binding or entry into cells for Lassa Virus. Lassa virus pseudotype entry inhibition, cell reporter; control for the full effect not named in the record. Potency, µM (doses to about 37.9 µM), for inactives: at the highest dose activity change, negative = inhibition, hits mostly inhibitors. 1.2% of 300,000 active. AID 540256, 2011; active means well fitted inhibition curve with a large enough effect; inconclusive means small, poorly fitted or top-dose-only effect, or effect the other way; inactive means flat fitted curve, though single readings scatter; tested in HEK293 cells; further: on the % scale 0 is the no-effect control and ±100 the full control effect; nearly all actives have a fitted effect of over 50% in size; luciferase read-out
SARS PLpro yeast: qHTS of Yeast-based Assay for SARS-CoV PLP; 0.19% of 330,000 active; Potency, µM (highest dose often 32.9 µM), for inactives: top-dose activity, positive = growth rescue; AID 485353, 2010; S. cerevisiae expressing SARS-CoV PLpro, growth rescue; control for the full effect not named in the record; active means well fitted rising curve with a large enough effect; inconclusive means small, poorly fitted or top-dose-only effect; inactive means no such curve, though single readings can be large or run the other way; further: 0% is about no effect; nearly all actives have a fitted effect of over 55% in size; growth read by luminescence after 48 h
RE007 growth inh: qHTS Assay for Inhibitors of the HIV-1 protein Vpr; S. pombe RE007 Vpr strain, BacTiter-Glo ATP luminescence, 24 h; control for the full effect not named in the record; AID 651644, 2012; Potency, µM (top dose mostly 92.2 µM), for inactives: top-dose activity change, negative = less growth; 0.21% of 360,000 active; active = well fitted falling curve with a large enough effect; inconclusive = small, poorly fitted or top-dose-only effect; inactive = no such curve, though single readings can be large or run the other way;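 further: on the % scale 0 is the no-effect control and ±100 the full control effect; nearly all actives have a fitted effect of over 50% in size; the assay follows cell death caused by Vpr and the record does not say whether a fall means rescue or toxicity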
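Fission yeast strain RE007, carrying one chromosomally integrated HIV-1 vpr copy, was seeded at OD 0.01 in PMG+AL medium with 23 nL pinned compound. After 24 h at 30 °C and 99% humidity, viability was read by BacTiter-Glo luminescence.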
Cruzain inh Det: qHTS Assay for Promiscuous and Specific Inhibitors of Cruzain (with detergent); Potency, µM, without a hit: max response, negative = inhibition, hits mostly inhibitors; purified cruzain, Z-FR-AMC fluorescence, 0.01% Triton; 0.43% of 200,000 active; Cruzipain (Trypanosoma cruzi), P25779;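 further: plate controls were neutral wells for no effect and buffer without enzyme for full effect; nearly all actives have a fitted effect of over 40% in size; top concentration of the series not given in the record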
Target sequence (P25779 123-467 limits assumed): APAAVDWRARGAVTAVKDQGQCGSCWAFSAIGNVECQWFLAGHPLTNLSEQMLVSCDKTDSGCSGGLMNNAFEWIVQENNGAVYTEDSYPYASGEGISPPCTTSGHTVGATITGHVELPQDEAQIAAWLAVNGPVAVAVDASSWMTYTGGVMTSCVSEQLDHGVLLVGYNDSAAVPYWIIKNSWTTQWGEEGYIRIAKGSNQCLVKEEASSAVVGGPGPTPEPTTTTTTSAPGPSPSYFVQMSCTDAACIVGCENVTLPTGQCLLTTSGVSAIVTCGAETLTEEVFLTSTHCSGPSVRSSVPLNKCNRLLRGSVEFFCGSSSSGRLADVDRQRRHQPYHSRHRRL
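Detergent-containing arm of a paired screen for aggregation-based inhibition: 0.01% Triton X-100 present. Cruzain at 1.5 nM cleaved 2 uM Z-FR-AMC at pH 5.5 with 5 mM DTT; AMC fluorescence gain over 60 s measured activity.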
NS1 function inh: qHTS Assay for Inhibitors of Influenza NS1 Protein Function | S. cerevisiae slowed by influenza A NS1, growth recovery by OD600 | Potency, µM (highest dose often 46.1 µM), for the others: at the highest dose activity, positive = more growth | 0.4% of 270,000 active | AID 2326, 2010; active means well fitted rising curve with a large enough effect; inconclusive means small, poorly fitted or top-dose-only effect; inactive means no such curve, though single readings can be large or run the other way; further: nearly all actives have a fitted effect of over 50% in size
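S. cerevisiae expressing influenza A NS1, grown in glucose, washed, then diluted 1:100 into pH 6.0 -URA galactose medium with 23 nl compound. Growth recovery read as OD600; NS1-free strain serves as control.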
StopGo reporter: High Throughput Screening for Foot and Mouth Disease Virus Antivirals; human cells with a luciferase reporter of 2A StopGo recoding; control for the full effect not named in the record; Potency, µM (top dose mostly 57.9 µM), for the others: at the highest dose signal change, negative = less light; 1.2% of 410,000 active; AID 1159524, 2015; active = well fitted falling curve with a large enough effect; inconclusive = small, poorly fitted or top-dose-only effect; inactive = no such curve, though single readings can be large or run the other way; tested in HEK293T cells; further: on the % scale 0 is the no-effect control and ±100 the full control effect; nearly all actives have a fitted effect of over 45% in size; luciferase light after 4 h
Cruzain inh noDet: qHTS Assay for Promiscuous and Specific Inhibitors of Cruzain (without detergent); Cruzipain (Trypanosoma cruzi), P25779; purified cruzain, Z-FR-AMC fluorescence, no detergent; Potency, µM, inactives show max response, negative = inhibition, most hits filed as inhibitors; 2.3% of 200,000 active;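 further: plate controls were enzyme without inhibitor for no effect and buffer without enzyme for full effect; nearly all actives have a fitted effect of over 40% in size; top concentration of the series not given in the record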
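Purified cruzain at 1.5 nM, pre-incubated 15 min with compound at room temperature in 100 mM sodium acetate pH 5.5, 5 mM DTT, 0.00005% Triton X-100. Reaction started with 2 uM Z-FR-AMC; AMC fluorescence increase over 60 s gives rate.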
Starred values were filed as active, the others as inactive; ? = inconclusive; / = no result given; & = joins results of further samples; [ ] = remark or other dose. Unless noted, the call rests on the fitted dose curve; in most records, active means well fitted curve in the direction sought with a large enough effect; inconclusive means small, poorly fitted or top-dose-only effect, or another doubt; inactive means no such curve, though single readings can be large; an effect the other way counts as inactive or inconclusive. Potency means the concentration at half of the fitted maximal effect.

SMILES | MARV entry inh | LASV entry inh | SARS PLpro yeast | RE007 growth inh | Cruzain inh Det | NS1 function inh | StopGo reporter | Cruzain inh noDet
COc1ccc(N2CCN(CCNC(=O)CCCn3c(=O)[nH]c4cc(Cl)ccc4c3=O)CC2)cc1 | 5%&1% | 2% | 0% | -2% | -6.1% | 5% | 0% | -4%
O=c1oc(-c2ccccc2NS(=O)(=O)c2ccc(F)cc2)nc2ccccc12 | -2% | 1% | 1% | 9% | / | 8% | -5% | /
O=C(Nc1ccccc1N1CCN(C(=O)c2ccc(Cl)cc2)CC1)c1cccc([N+](=O)[O-])c1 | ? | 2%[46.1 µM] | 4% | -1% | / | 4% | -13% | /
Fc1cccc(F)c1C(Nc1nncs1)Nc1nncs1 | / | / | / | 0% | 5.1% | 1% | -20% | 1%
CS(=O)(=O)Nc1ccc(C(=O)NCCSCc2ccco2)cc1 | 5% | 2% | 0% | 0% | -1.8% | -2% | 11% | 3%
Cc1c(C)c2ccc(OC3CCCCC3=O)cc2oc1=O (configuration not stated) | 4%[46.1 µM] | 13% | -3% | -7% | -16% | 1% | 40%[activator] | 24%
FC(F)(F)Oc1ccc(NC(=S)NCc2ccccc2)cc1 | 11µM* | ? | -1% | 10% | -8.1% | -29% | 15% | 0%
O=C1NCCCC2c3c(cc(Br)c(O)c3Br)OC12N1CCCCC1 (configuration not stated) | 1% | -19% | 11% | -16% | -6.2% | 15% | 9% | -3%
C=CCOc1cccc(/C=N/NC(=O)C(OC)c2ccccc2)c1 (configuration not stated) | 2%[46.1 µM] | -23%[46.1 µM] | -3% | 4% | / | -14% | -2% | /
Cc1cccc(N2C(=O)CC(N(C(=O)c3ccco3)c3cccc(C)c3)C2=O)c1 (configuration not stated) | -5% | 3% | -5% | -2% | -3.6% | -7% | -20% | -9%
COc1ccc(CNC(=O)CCC(=O)n2ncc3cc(C)ccc32)cc1 | / | / | -4% | -8% | / | -11% | -21% | /
CCN(CC)S(=O)(=O)c1ccc2[nH]c(=O)[nH]c2c1 | ? | 0% | 1% | 0% | 0.5% | -6% | -4% | -3%
Cc1noc(C)c1S(=O)(=O)N1CCCC(C(=O)Nc2ccc(Cl)cn2)C1 (configuration not stated) | ? | ? | 3% | 11% | 1.7% | ? | 32µM* | -8%
CCOC(=O)CNC(=O)C(CC(N)=O)NC(=O)OC(C)(C)C (configuration not stated) | / | / | -1% | -16% | / | 4% | 12% | /
COc1ccc(CSc2cccc3cccnc23)cc1[N+](=O)[O-] | 39% | 11% | 7% | -16% | -5.4% | -6% | 3% | -6%
CC(=O)c1cccc(NC(=O)Cn2c(=O)oc3cc(S(=O)(=O)NC4CCCC4)ccc32)c1 | -4%[46.1 µM] | / | / | / | -0.5% | / | 32%[activator] | -10%
CCOC(=O)c1c(C)[nH]c(/C(C)=N/O)c1C | ? | -1% | -3% | -17% | 3.8% | -16% | 10% | 4%
CN(CC1COCCO1)c1nc2nonc2nc1N1CCSCC1 (configuration not stated) | 13%[46.1 µM] | 0% | 0% | -1% | / | 2% | -11% | /
O=[n+]1c2c(n([O-])c3cc(F)ccc31)CCCC2 | 2% | 4% | -7% | 19% | -1.5% | 1% | -4% | 1%
O=[N+]([O-])c1ccc(Nc2nc(N/N=C\c3ccc4c(c3)OCO4)nc(N3CCCCC3)n2)cc1 | ? | ? | 1% | 4% | 4.7% | 13% | -21% | 7.9µM*
COc1cccc(-c2noc(C3CCCN(C(=O)c4cccc(F)c4)C3)n2)c1 (configuration not stated) | / | / | -2% | -6% | / | 1% | 35%[activator] | /
O=C(Nc1cc([N+](=O)[O-])ccc1Cl)C(Sc1ccccc1)c1ccccc1 (configuration not stated) | ? | -16% | -8% | -8% | -3.7% | 9% | ? | 2%
Cn1c(=O)[nH]c(=O)c2[nH]c(N(Cc3ccccc3)Cc3ccccc3)nc21 | -3%[46.1 µM] | ? | 0% | 21% | -5.6% | 11% | 40µM* | 10%
Cc1cccc(N2CC(C(=O)Nc3nnc(SCc4cccnc4)s3)CC2=O)c1 (configuration not stated) | -20% | 6% | -3% | -17% | / | 5% | -27% | /
Cn1c(C(=O)NCCC2=CCCCC2)cc2c(=O)n3ccccc3nc21 | 22%[46.1 µM] | 6% | -5% | 9% | -1.6% | 2% | 57%[activator] | 7%

Some of these compounds in order of molar mass, rising.
SMILES | MARV entry inh | LASV entry inh | SARS PLpro yeast | RE007 growth inh | Cruzain inh Det | NS1 function inh | StopGo reporter | Cruzain inh noDet
O=[n+]1c2c(n([O-])c3cc(F)ccc31)CCCC2 | 2% | 4% | -7% | 19% | -1.5% | 1% | -4% | 1%
CN(CC1COCCO1)c1nc2nonc2nc1N1CCSCC1 (configuration not stated) | 13%[46.1 µM] | 0% | 0% | -1% | / | 2% | -11% | /
CS(=O)(=O)Nc1ccc(C(=O)NCCSCc2ccco2)cc1 | 5% | 2% | 0% | 0% | -1.8% | -2% | 11% | 3%
Cc1cccc(N2CC(C(=O)Nc3nnc(SCc4cccnc4)s3)CC2=O)c1 (configuration not stated) | -20% | 6% | -3% | -17% | / | 5% | -27% | /
O=[N+]([O-])c1ccc(Nc2nc(N/N=C\c3ccc4c(c3)OCO4)nc(N3CCCCC3)n2)cc1 | ? | ? | 1% | 4% | 4.7% | 13% | -21% | 7.9µM*
COc1ccc(N2CCN(CCNC(=O)CCCn3c(=O)[nH]c4cc(Cl)ccc4c3=O)CC2)cc1 | 5%&1% | 2% | 0% | -2% | -6.1% | 5% | 0% | -4%

Following part
SMILES | MARV entry inh | LASV entry inh | SARS PLpro yeast | RE007 growth inh | Cruzain inh Det | NS1 function inh | StopGo reporter | Cruzain inh noDet
COc1ccccc1NC(=O)Cn1c(=O)n(Cc2ccccc2)c(=O)c2sc3ccccc3c21 | 2%[46.1 µM] | 20%[46.1 µM] | / | / | -3.0% | / | 0% | 0%
CC(=O)NNc1ccc(C(F)(F)F)cc1[N+](=O)[O-] | 0% | 5% | 1% | -3% | -1.0% | -12% | / | -6%
CCOC(=O)c1c(C)n(C)c2ccc(OC)c(NS(=O)(=O)CC)c12 | 19% | 3% | ? | / | -0.5% | -6% | -24% | 6%
OC1CCCN(CC(O)COC(c2ccc(F)cc2)c2ccc(F)cc2)C1 (configuration not stated) | ? | 1%[46.1 µM] | 2% | 8% | / | -2% | -6% | /
CCn1c(=O)cc(OCC(=O)N2CCN(c3ccccc3OC)CC2)c2ccccc21 | 4%[46.1 µM] | ? | / | / | -0.1% | / | ? | ?
CCOC1CC(C)(C)NC(=S)N1 (configuration not stated) | ? | 0% | 10% | / | 2.3% | 21% | 0% | 7%
C=C(C)CN(CC)Cc1c(C(=O)N(C)CCCC)nc2ccccn12 | 15%[46.1 µM] | 14% | 0% | -1% | / | 1% | -11% | /
NC(=O)C1CCN(CC(=O)Nc2ccc(S(=O)(=O)N3CCOCC3)cc2)CC1 | 8%[46.1 µM] | 7% | 0% | 3% | / | -4% | -11% | /
CCOc1ccccc1N1CC(C(=O)Nc2ccc(C(=O)O)cc2)CC1=O (configuration not stated) | 17% | 11% | 14% | 25% | 1.7% | -8% | 14% | -2%
CCCCC(=O)Nc1nnc(CCc2ccccc2)s1 | / | / | -2% | 0% | / | -4% | 5% | /
Cc1ccc(CNC(=O)CSc2n[nH]c(-c3ccc(F)cc3)n2)cc1 | / | ? | / | / | -1.7% | / | -20% | -7%
Oc1c(Br)cc(Br)cc1/C=N/c1nc2c(s1)CCCC2 | 4% | -2% | / | ? | / | / | -6% | /
COC(COC(N)=O)C1=C(N2CC2)C(=O)C(C)=C(N2CC2)C1=O (configuration not stated) | ? | 1.3µM* | / | -22% | / | / | -1% | /
CCn1c(CSc2ncn[nH]2)nc2cc(C(=O)O)ccc21 | / | / | 1% | 1% | / | 9% | -2% | /
Cc1ccc(CS(=O)Cc2ccc(C(=O)NCc3ccccc3)o2)cc1 (configuration not stated) | 0%[46.1 µM] | ? | 0% | 1% | / | 6% | 16% | /
CC(C)c1cc(C(=O)N2CCCC(CCC(=O)NCc3ccccc3F)C2)n(C)n1 (configuration not stated) | ? | / | -1% | 2% | / | 1% | ? | /
Cc1ccccc1-n1c(=O)n(Cc2ccccc2)c(=O)c2[nH]cnc21 | ? | 13µM* | 0% | -1% | / | -3% | -16% | /
O=S(=O)(N1CCCCC1)n1c(Cc2ccccc2)nc2ccccc21 | ? | 21% | -12% | 11% | -3.5% | -40% | / | 7%
O=C(CSc1nnc(Cc2ccsc2)o1)c1ccccc1 | 21%[46.1 µM] | 7% | 0% | -20% | / | 7% | 47%[activator] | /
O=C(Nc1cccc(O)c1)c1cc(-c2ccco2)on1 | -3% | 14% | -15% | -15% | -7.0% | -13% | / | 4%
Cc1ccc(OCCn2c(=O)cnc3ccccc32)cc1 | ? | -20% | 20% | -2% | -3.0% | -9% | ? | -6%
COc1ccc(NC(C)=O)cc1NC(C)C(=O)Nc1cccc2ccccc12 (configuration not stated) | 7% | 19% | -8% | 15% | 1.7% | ? | -6% | 2%
CC(Sc1nnc(-c2cccs2)n1-c1ccccc1)C(=O)NCc1ccc2c(c1)OCO2 (configuration not stated) | -25% | ? | 7% | -10% | 2.5% | 0% | -2% | -16%
Cc1ccc(NC(=O)CSCC(=O)N2CCCc3ccccc32)cc1 | 6%[46.1 µM] | 12% | 0% | 1% | / | / | -11% | /
O=C(NCCc1csc(-c2ccc(F)cc2)n1)c1cccs1 | / | -3%[46.1 µM] | / | / | -6.5% | / | ? | -1%

Compound activity deposited in PubChem BioAssay by National Center for Advancing Translational Sciences (NCATS).

Not a hit list; any-hit rate near 4.7%.
